Bioassay records as filed in PubChem BioAssay.
NPYLR7 agonist – activates Aedes aegypti NPYLR7 receptor; AID 1259423; hit rate 0.15% among 270,000; activation, % at 10 µM; HEK293T NPYLR7/Galpha15, GCaMP6s calcium fluorescence; in the data active = activation above about 40%;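 note: 0% = vehicle and 100% = reference agonist at the receptor; some compounds past the cut are filed as inactive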
NPYLR7 agonist max-min – recorded beside NPYLR7 agonist, whose call it bears; activation, %; measured here: Max-Min RFU normalised activation; some inactives read as strong as hits;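 span of the calcium signal over five minutes; 0% = vehicle and 100% = native peptide agonist; compound fluorescence can raise it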
An asterisk follows results filed as active; & = joins results of further samples. The list is partial. The share of hits here may be higher or lower than overall.

SMILES | NPYLR7 agonist | NPYLR7 agonist max-min
COc1ccc(/C=C/C2=NN(c3ccccc3F)C(c3ccc(OC)cc3)C2)cc1 (stereo not drawn) | -9 | -10
O=C(Nc1cccc(Cl)c1)Nc1cnn(CC(F)(F)F)c1 | 1 | -1
COc1ccc2nc(SCC3CC3(Cl)Cl)[nH]c2c1 (stereo not drawn) | 0 | 40
O=C(/C=C/c1cccs1)NCC1Cc2cc(F)cc(-c3ccccn3)c2O1 (stereo not drawn) | 6 | 5
O=C(CCC(=O)N1CCNC(=O)C1c1cccc(F)c1)NC1CCCC1 (stereo not drawn) | 0 | -5
CCc1csc(CNC(=O)c2ccc(N(C)Cc3nonc3C)nc2)n1 | 3 | 1
Cc1ccc2[nH]cc(-c3cc(O)cc(C(=O)O)c3)c2c1 | 12 | 9
Cc1ccc(-n2[nH]c(-c3cccc(C)c3)c(-c3ccccc3NC(=O)NC(C)C)c2=O)cc1 | 4 | 14
CCN(CC)c1onc(-c2ccccc2)c1CN(Cc1ccccc1)CC(O)COCc1ccccc1 (stereo not drawn) | 12 | 14
CCc1cc(CN(C)C/C(C)=C/c2ccco2)on1 | -3 | -4
FC(F)(F)c1cccc(CC2CN(Cc3ccncc3)CCO2)c1 (stereo not drawn) | 2 | -1
CC(C(=O)NCCn1ccnc1)N(c1ccccc1)S(C)(=O)=O (stereo not drawn) | 0 | -3
Cc1ccc(-c2csc3ncn(CC(=O)Nc4c([N+](=O)[O-])ccc(C)c4C)c(=O)c23)s1 | 2 | 0
COc1ccccc1-c1ccc2c(c1)C(C)(Cc1ccc(Cl)s1)C(=O)N2 (stereo not drawn) | 7 | 5
Cc1cc(C)nc(SCCS(=O)(=O)c2ccc(C(C)(C)C)cc2)n1 | 2 | 4
CC(C)(C)c1cc2nc(-c3ccccc3Cl)cc(C(=O)N3CCN(c4ccccc4F)CC3)n2n1 | 20&9 | 19&8
CC(C#N)(NC(=O)COc1ccc(Cl)cc1Br)C1CC1 (stereo not drawn) | 5 | 1
O=C(NC(C(=O)NC1CC1)C1CCN(C(=O)c2cccc(C(F)(F)F)c2)CC1)c1cccs1 (stereo not drawn) | -7 | -5
CCN(CC)CCCC(C)NC(=O)NC1CC(=O)N(c2ccc(OC)c(OC)c2)C1 (stereo not drawn) | -16 | -12
CC(C)C(NC(=O)CN1CC(CO)Oc2ccccc21)c1ccccc1 (stereo not drawn) | 1 | -2

Copied from the list.
Value for O=C(NC(C(=O)NC1CC1)C1CCN(C(=O)c2cccc(C(F)(F)F)c2)CC1)c1cccs1 (stereo not drawn) in NPYLR7 agonist max-min: -5
Value for CC(C)C(NC(=O)CN1CC(CO)Oc2ccccc21)c1ccccc1 (stereo not drawn) in NPYLR7 agonist: 1
Value for Cc1ccc2[nH]cc(-c3cc(O)cc(C(=O)O)c3)c2c1 in NPYLR7 agonist max-min: 9
Value for O=C(Nc1cccc(Cl)c1)Nc1cnn(CC(F)(F)F)c1 in NPYLR7 agonist max-min: -1
Value for O=C(CCC(=O)N1CCNC(=O)C1c1cccc(F)c1)NC1CCCC1 (stereo not drawn) in NPYLR7 agonist max-min: -5
Value for FC(F)(F)c1cccc(CC2CN(Cc3ccncc3)CCO2)c1 (stereo not drawn) in NPYLR7 agonist: 2
Value for CCc1cc(CN(C)C/C(C)=C/c2ccco2)on1 in NPYLR7 agonist: -3

(further entries)
SMILES | NPYLR7 agonist | NPYLR7 agonist max-min
CC(=O)NCCn1ccnc1-c1ccccc1OCc1ccccc1 | 23 | 19
CCOC(=O)Cn1c2c(c3ccccc31)C[C@H]1C[C@@H]2[C@@H](OC)CN1C(=O)N1CCOCC1 | 24 | 23
Cn1cc(CN(Cc2ncc[nH]2)C2CC2)cn1 | -2 | -4
Cc1cccc(C)c1OCCCn1cnnc1S(C)=O (stereo not drawn) | 1 | 0
CCCCn1c(N)c(N(C(=O)CN(C)CC(=O)N(C)C)C2CCCC2)c(=O)[nH]c1=O | 22 | 16
Cc1ccc(C(c2ccccc2)N2CCN(C(=O)c3cccc4c3OCCO4)CC2)cc1 (stereo not drawn) | 11 | 19
Cc1ccc(I)c(C(=O)NCc2ccn[nH]2)c1 | 21 | 11
CN(C(=O)c1ccco1)C(Cc1ccc(F)cc1F)C1CCN(Cc2ccc3c(c2)OCO3)CC1 (stereo not drawn) | 22 | 14
CCOC(=O)C1CCCN(C(=O)c2cc(-c3ccc(Cl)cc3)n(-c3ccccc3F)c2C)C1 (stereo not drawn) | 10 | 7
COc1nn(C)cc1C(=O)N1CC(C)OC(C)C1 (stereo not drawn) | 3 | 2
O=C(c1ccc(CSc2nnnn2-c2ccccc2)cc1)N1C2CCC1CC(Oc1cccc(C(F)(F)F)c1)C2 (stereo not drawn) | 7 | -5
O=c1c2nc(N3CCCC3)sc2c(-c2ccco2)nn1Cc1ccc(C(F)(F)F)cc1 | -5 | -8
CCCCC(=O)Nc1cccc(C(=O)NCc2nc(C)cc(C(F)(F)F)n2)c1 | 0 | -4
Cc1cc(C)c2c(n1)nn1c(NC3CCCCC3)cc(C)nc21 | 1 | 18
Cc1noc(/C=C/N(C)C)c1S(=O)(=O)N1CCC(C(=O)O)CC1 | 5 | 4
CN(c1nc(N)c(C#N)c(CC#N)c1C#N)C1CCS(=O)(=O)C1 (stereo not drawn) | 5 | 12
CN(C(=O)CS)c1nc2c3ccccc3ncn2n1 | -1 | 0
CCC(C)NC(=O)Cn1cnc2c1c(=O)n(C)c(=O)n2C (stereo not drawn) | 5 | 6
CCN(Cc1nccn1C)C(=O)c1ccc(-c2c(F)cccc2OC)nc1 | 17 | 7
CCCn1ccnc1-c1nccn1CCC(N)=O | 0 | -1
CCOC(=O)C1CCN(CC(=O)N2N=C(c3ccc(F)cc3)CC2c2ccccc2C)CC1 (stereo not drawn) | 1 | 5
O=C(NCc1cccnc1)c1nn(-c2ccccc2F)c(=O)n(Cc2cccc(C(F)(F)F)c2)c1=O | 12 | 8
CCCc1cc(C(=O)N2CCN(c3nccc(OC)n3)CC2)n[nH]1 | 1 | -1
CCOC(=O)C1=C(/C=C/c2ccccc2)NC(=O)NC1C (stereo not drawn) | 21 | 17
O=C1CNCC(C(=O)Nc2cccc(Oc3ccccc3)c2)N1 (stereo not drawn) | 5 | 4
COc1ccc(CC2(CCC(=O)N3CCN(c4ccc(Cl)cn4)CC3)CCC(=O)N2)cc1OC (stereo not drawn) | 29 | 14
COc1ccc(-c2ccccc2)cc1NC(=O)c1ccc2nc(C)c(N(C)C(=O)CCc3ccccc3)n2c1 | 8 | 5
CN(C)c1ccc(-c2nc3cc(N)ccc3o2)cc1 | -1 | -8
CSc1ccc(Cn2c(C)c(C(=O)NCC3CC3)sc2=O)cc1 | 10 | 6
COC(=O)c1ccc(COc2ccc3c(=O)c(-c4ccc(OC)cc4)c(C)oc3c2)cc1 | -4 | -8
COCC(C)NCc1nc(Cc2cccs2)no1 (stereo not drawn) | 3 | 5
CCN(CC1CC(c2ccccc2)=NO1)CC(O)c1ccccc1 (stereo not drawn) | 2 | 9
Cc1cnc(NC(=O)CCc2nc(C(C)(C)C)no2)s1 | -2 | -2
CSc1ccc(CN(Cc2ccco2)S(=O)(=O)c2ccc(Cl)cc2)cc1 | -5 | -9
COC(=O)c1ccc(NC(=O)CSc2nnc(C)c3cnn(-c4ccccc4)c23)cc1 | -8 | -13
COc1ccccc1N1CCN([C@H]2CN(C(=O)c3ccc[nH]3)C[C@@H]2O)CC1 | 0 | -2
CCCCNCC(=O)N1c2ccccc2-n2cccc2C1c1ccc(C)cc1 (stereo not drawn) | 4 | 2
CN(Cc1ccccc1)Cc1cc(C(=O)NCc2cccc(F)c2F)no1 | -1 | -5
COc1ccccc1-c1ccc2c(c1)C(C)(Cc1cccc(F)c1)C(=O)N2 (stereo not drawn) | 11 | 7
CCN1CC(C(=O)N(CC)CC(=O)NC(C)(C)C)CC1=O (stereo not drawn) | 0 | -1
CCCCC(CC)C(=O)Nc1nnc(SCc2c(Cl)cccc2Cl)s1 (stereo not drawn) | 22 | 15
CC1CCN(Cc2nnnn2CCCC(=O)N2CCCC2c2ccc(F)cc2)CC1 (stereo not drawn) | 8 | 2
COCC1N(C(=O)Nc2ccccc2)C2CCC1(O)CC2 (stereo not drawn) | 31 | 31
Cc1ccc(-c2cnc(SCCNC(=O)c3ccccc3)[nH]2)cc1 | 12 | 11
CCn1c(SCc2ccc(C(=O)OC)cc2OC)nnc1-c1c2c(nc3ccccc13)CCC2 | -6 | -2
O=C(c1cccc([N+](=O)[O-])c1)N1CCN(C(C(=O)N2CCOCC2)C2CCCC2)CC1 (stereo not drawn) | -1 | 3
Cc1ccc(-n2c(-c3ccccc3)n[nH]c2=S)cc1 | -3 | -7
CNC(=O)c1ccsc1NC(=O)c1cc(C)n(C)n1 | 3 | 1
COc1ccc(CSCc2csc(Cc3ccc(Cl)c(Cl)c3)n2)cc1 | 25 | 25
COc1ccc(CNCc2cn(-c3ccc(F)cc3)nc2-c2ccccc2Cl)cc1OC | 6 | -2
O=C(O)c1coc(CN(Cc2cccc(Cl)c2)Cc2cccc(C(F)(F)F)c2)n1 | 9 | 6
C=C(C)CC1Nc2ccccc2NC1CC(=C)C (stereo not drawn) | -11 | -19
O=S(=O)(C(=Cc1ccc2c(c1)OCO2)c1nc2ccccc2[nH]1)c1ccccc1 | -2 | -4
CC(C)CC(=O)N1CCC(C(NC(=O)c2cccs2)C(=O)N2CCCC2)CC1 (stereo not drawn) | 3 | 13
O=C(C1CCCO1)N1CCN(c2ncnc3c2nnn3Cc2ccccc2)CC1 (stereo not drawn) | -15 | -21
O=C(Nc1ccc(-c2cccc(-c3ccc4c(c3)OCCO4)n2)cc1)c1cc2ccccc2s1 | -6 | 0
CCc1ccc(CN2CCc3onc(-c4cccc5ccccc45)c3C2)nc1 | -2 | -6
COCC(=O)Nc1ccc2nc(-c3cc(F)ccc3F)[nH]c2c1 | -4 | -4
CCCCCCCCCCCCOC[n+]1ccccc1C | -12 | -18
CCCCN(CC)S(=O)(=O)c1ccc(C(=O)Nc2nnc(C3COc4ccccc4O3)o2)cc1 (stereo not drawn) | -5 | -7

In the list so far, two contain a nitro group on carbon.
SMILES | NPYLR7 agonist | NPYLR7 agonist max-min
Cc1ccc(-c2csc3ncn(CC(=O)Nc4c([N+](=O)[O-])ccc(C)c4C)c(=O)c23)s1 | 2 | 0
O=C(c1cccc([N+](=O)[O-])c1)N1CCN(C(C(=O)N2CCOCC2)C2CCCC2)CC1 (stereo not drawn) | -1 | 3

(listing goes on)
SMILES | NPYLR7 agonist | NPYLR7 agonist max-min
NC(=O)CCN(C(=O)COc1ccccc1)c1ccc(F)cc1 | 7 | 1
CS(=O)(=O)c1nc(-c2ccco2)cc(C(F)(F)F)n1 | 2 | 2
O=C(Cc1cc(-c2ccc3c(c2)OCO3)on1)NCCC1=CCCCC1 | 11 | 14
Cc1cc(C(=O)N2CCC(c3cn(C)c4ccccc34)CC2)n(C(C)(C)C)n1 | 29 | 45
COc1ccc(N2C3=[N+](CCCCC3)CC2(O)c2ccc(-c3ccccc3)cc2)cc1 (stereo not drawn) | 5 | -1
COC(=O)c1cc(C(=O)N2CCC(c3ccccc3)C(C)C2)ccn1 (stereo not drawn) | 8 | 3
COc1cccc(N2CCN(C(=O)Cn3nnnc3CN3CCCC3)CC2=O)c1 | 2&10 | -2&5
CC(C)(C)CC(C)(C)c1ccc(OCC(=O)NNC(=O)CCOc2ccccc2)cc1 | -4 | -11
OC1CCCN(c2ncccc2CNCc2c(F)ccc(F)c2F)C1 (stereo not drawn) | 16 | 8
O=C1CCC(NCc2nncn2C2CCCCC2)CCN1Cc1ccccc1 (stereo not drawn) | 10 | 8
COc1cccc(C(C)=NNC(=O)Cc2cccn2C)c1 | -2 | -5
Cc1cccc(CSc2nnc(C(Cc3ccccc3)NC(=O)Nc3ccc(Cl)cc3Cl)n2-c2ccc([N+](=O)[O-])cc2)c1 (stereo not drawn) | 11 | 18
O=C(C=Cc1cccnc1)Nc1cc(S(=O)(=O)N2CCOCC2)ccc1Oc1ccc(F)cc1 | -2 | -4
COc1cccc2c1OCC(c1nccn1CCF)=C2 | 0 | 1
O=C(Nc1ccccc1)c1cc(S(=O)(=O)NCc2ccccc2)c(Cl)cc1Cl | 8 | 6
O=C(Nn1cnc2ccccc21)N1CCN(c2ncccn2)CC1 | 3 | 1
CC1CC(C)CN(CC(C)NC(=O)c2ccc(Cl)cc2F)C1 (stereo not drawn) | -2&2 | 0&1
CCOC(=O)CN(Cc1cccn1Cc1cccc(C)c1)C1CCCCC1 | 20 | 12
CCCCOCCOCC(=O)N1CCc2c(sc3[nH]c(=O)n(C4CCCCC4)c(=O)c23)C1 | 8 | 1
COCCN1Cc2cc3c(cc2N(CC(C)(C)O)CCC1=O)OCO3 | -1 | 2

Next part, overlapping the part above by three compounds.
SMILES | NPYLR7 agonist | NPYLR7 agonist max-min
CCOC(=O)CN(Cc1cccn1Cc1cccc(C)c1)C1CCCCC1 | 20 | 12
CCCCOCCOCC(=O)N1CCc2c(sc3[nH]c(=O)n(C4CCCCC4)c(=O)c23)C1 | 8 | 1
COCCN1Cc2cc3c(cc2N(CC(C)(C)O)CCC1=O)OCO3 | -1 | 2
Cn1c(SCc2ccc(C(F)(F)F)cc2)nnc1-c1ccncc1 | 16 | 10
COc1ccc(-c2cc(C(=O)NC3CCCN(Cc4ccccn4)C3)[nH]n2)cc1 (stereo not drawn) | 4 | 4
O=C(c1cc(-c2ccccc2)nc2cc(-c3ccccc3)nn12)N1CCN(Cc2ccc3c(c2)OCO3)CC1 | 15 | 17
CC1CC1c1ccc(CCC(=O)N2CCN(c3ccc(O)cc3)CC2)o1 (stereo not drawn) | 2 | 0
O=C(COC(=O)c1csc2c1CCCC2)c1ccc(Cl)s1 | -2 | -8
C=CCNC(=O)C(NC(=O)c1cccs1)C1CCN(C(=O)c2ccc(C(F)(F)F)cc2)CC1 (stereo not drawn) | 8 | 14
